RGS16-Gao HTS: modulates binding between human RGS16 and Galphao; O15492+P09471; bead-based flow cytometry RGS16-Galphao binding, fluorescence; actives lie on both sides; binding response (% of control), % at 10 µM; 0.38% of 220,000 active; AID 1441;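 active = below 25% or above 175%, edge rows of some plates excepted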;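 also: Galphao activated by GDP with aluminum fluoride before binding; 100% = wells without compound and 0% = beads without RGS; some results beyond the cut were filed as inactive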
GALR2 ag: agonists of human galanin receptor 2 (GALR2); O43603; GALR2-expressing cells, agonist activation read-out; activation, %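 (tested at 5 µM)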; 0.48% of 140,000 active;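 active = above mean plus 3 SD of all compounds, about 5% in these data, not always enough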;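 also: 0% = vehicle buffer wells and 100% = reference agonist at full effect; tested in CHO reporter cells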
HSV replic up: increases HSV replication in cells; HSV replication augmentation in cells, fold increase; maximum fold increase; 0.005% of 220,000 active;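 active = peak rise of 1.5-fold or more in the series; tested in PC3 cells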;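 also: first round at 10 µM; read as green reporter fluorescence; hits show the peak of a series up to 25 µM; 1 = signal of infected wells without compound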
PKD1 kinase inh: PKD1 (human) kinase inhibition; Q15139; inhibition, %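 (about 10 µM by stock and volumes)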; 0.056% of 200,000 active; PKD1 kinase fluorescence polarization assay; AID 797;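 active = inhibition of 50% or more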;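 also: controls were vehicle for no effect and a reference inhibitor for full effect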
Target sequence (Q15139 whole entry, looked up): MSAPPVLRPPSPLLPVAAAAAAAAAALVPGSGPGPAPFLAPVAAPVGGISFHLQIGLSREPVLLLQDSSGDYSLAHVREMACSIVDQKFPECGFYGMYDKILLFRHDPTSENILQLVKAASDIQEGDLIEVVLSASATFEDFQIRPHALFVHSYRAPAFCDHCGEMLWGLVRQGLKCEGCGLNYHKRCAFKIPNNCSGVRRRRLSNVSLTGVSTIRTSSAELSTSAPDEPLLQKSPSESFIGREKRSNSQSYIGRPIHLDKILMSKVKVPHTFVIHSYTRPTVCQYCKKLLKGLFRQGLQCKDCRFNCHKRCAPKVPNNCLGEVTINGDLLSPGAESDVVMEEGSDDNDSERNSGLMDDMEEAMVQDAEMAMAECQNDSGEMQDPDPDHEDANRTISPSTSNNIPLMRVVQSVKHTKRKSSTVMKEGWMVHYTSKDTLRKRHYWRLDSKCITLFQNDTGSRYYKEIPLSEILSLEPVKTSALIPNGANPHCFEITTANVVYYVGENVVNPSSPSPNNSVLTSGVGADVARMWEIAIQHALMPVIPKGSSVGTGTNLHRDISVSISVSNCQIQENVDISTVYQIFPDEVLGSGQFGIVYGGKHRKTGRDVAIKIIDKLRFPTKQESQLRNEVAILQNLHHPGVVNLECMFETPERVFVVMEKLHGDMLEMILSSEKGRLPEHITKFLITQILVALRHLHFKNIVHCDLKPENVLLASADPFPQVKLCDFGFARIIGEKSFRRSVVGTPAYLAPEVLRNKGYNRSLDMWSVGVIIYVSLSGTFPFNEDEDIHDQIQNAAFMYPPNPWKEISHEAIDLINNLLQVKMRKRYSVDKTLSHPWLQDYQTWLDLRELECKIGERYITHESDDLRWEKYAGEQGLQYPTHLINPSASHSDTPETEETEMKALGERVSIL
Insulin prom inh: TRM-6 insulin promoter activity inhibition. AID 1273. 0.9% of 130,000 active. TRM-6 cells (human fetal islet line), insulin promoter-eGFP reporter, imaging; reporter expression induced with tamoxifen. inhibition, % at 2 µM;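 active = inhibition above the mean plus 3 SD, with well images judged a real hit on visual review, cut at about 60% in these data, passing the limit was not always enough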
Insulin prom inh cell count: second read-out of Insulin prom inh, no call of its own (marks repeat the call); normalized cell count, %; measured here: cell count, toxicity; reference of the scale not given here;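 cells exposed to compound for 48 h; stained nuclei by imaging scaled within each plate; lower means fewer cells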
HSV replic up primary fold: further read-out of HSV replic up, marked with its call; fold increase; compound at 10 µM; measured here: primary screen fold increase 10 uM; tested in PC3 cells;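 GFP signal in the first replicate; 1 = infected wells without compound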
* marks the source's active call; other numbers are inactive results; i = inactive; . = no result given. This is a random part of the collection, and some 1.2% of all compounds hit somewhere here.

compound | RGS16-Gao HTS | GALR2 ag | HSV replic up | HSV replic up primary fold | PKD1 kinase inh | Insulin prom inh | Insulin prom inh cell count
Cc1cccc(CSc2cccc3cccnc23)c1 | 81.3 | -1.4 | i | 0.85 | 3.0 | 50.0 | 72.0
FC(F)(F)c1cccc(OCc2nnc3n2CCC3)c1 | 105.1 | . | i | 0.89 | -4.2 | . | .
O=C(Cn1cnc2ccccc2c1=O)c1ccccc1 | 105.8 | -1.2 | i | 1.1 | -4.6 | 47.1 | 141.7
COc1cc(NC(=O)c2cccs2)c(C(=O)OCC(=O)NC(=O)NC(C)(C)C)cc1OC | 104.1 | -2.1 | i | 1.04 | -2.2 | 21.7 | 80.2
Cc1ccc(N2C(=O)C(Cl)=C(N3CCOCC3)C2=O)cc1Cl | 104.1 | -0.1 | i | 0.84 | -3.2 | 57.9 | 130.6
CS/C(Nc1cc(Cl)ccc1Cl)=C(/C#N)C(=O)c1ccco1 | 100.0 | . | i | 1.06 | . | . | .
O=C(CSc1nc2ccccc2s1)N1c2ccccc2Sc2ccccc21 | 98.6 | -1.7 | i | 1.09 | -4.7 | 53.3 | 78.8
CC(=O)NC(=O)COC(=O)c1ccc2ncsc2c1 | 103.4 | . | i | 0.95 | -2.5 | . | .
O=C(Cc1ccccc1)NNC1CC(=O)N(c2ccc(Br)cc2)C1=O (stereo not given) | 97.9 | 0.0 | i | 0.99 | 5.1 | . | .
COc1cc(-c2nn3c(-c4cccc(C)c4)nnc3s2)cc(OC)c1OC | 100.8 | -1.8 | i | 0.87 | -4.2 | 6.5 | 98.0
CCn1cc(C(=O)NCc2cccs2)c(=O)c2ccc(C)nc21 | 98.3 | 0.7 | i | 0.96 | 3.6 | -54.5 | 154.2
CCCCSCc1ccc(C(=O)O)o1 | 103.3 | -0.8 | i | 0.96 | 5.0 | 50.0 | 131.0
O=C(N/N=C/c1ccccc1)NC1CCCCC1 | 103.8 | -1.5 | i | 0.89 | 6.8 | 12.5 | 151.0
COc1ccc(CN2CCN(S(=O)(=O)c3ccc(NC(C)=O)cc3)CC2)cc1 | 104.4 | . | i | 0.97 | . | . | .
COc1ccc(C2=Nn3c(nnc3-c3ccccc3OC)SC2)cc1OC | 104.8 | 3.1 | i | 0.51 | -12.6 | -200.0 | 2.4
COc1ccc(-c2cn3cccnc3n2)cc1NC(=O)CC(C)C | 107.7 | 0.3 | i | 1.09 | -12.4 | -54.5 | 64.9
Cc1c(Cl)cccc1NC(=O)c1cccc(OC(F)F)c1 | 101.0 | -1.0 | i | 0.94 | -7.0 | -21.1 | 136.4
Cc1cc(N)n(Cc2cccs2)n1 | 97.2 | . | i | 1.03 | -5.9 | . | .
O=C1C2C(c3ccccc3)C=CC(c3ccccc3)C2C(=O)N1C1CCCCC1 (stereo not given) | 104.8 | -0.7 | i | 1.01 | -13.0 | -43.8 | 143.9
Cc1ccccc1C(=O)Nc1ccc(N2CCOCC2)nc1 | 105.0 | 0.7 | i | 0.89 | -2.4 | 33.3 | 138.6
CC1CN(C(=O)c2ccc(Oc3ccccc3)cc2)CC(C)O1 (stereo not given) | 103.1 | . | i | 0.94 | -0.1 | 54.5 | 45.0
CN(CCC#N)C(=O)COc1ccc(Br)cc1Cl | 105.1 | . | i | 0.95 | 0.7 | . | .
CCCOc1ccccc1N/C(=N/c1nc(C)cc(C)n1)NC(=O)COc1ccc(OC)cc1 | 105.5 | 1.3 | i | 0.78 | -3.5 | 16.7 | 78.8
Cc1ccc(C)c(Cn2nnc3c(=O)[nH]c(C(=O)NCc4ccco4)nc32)c1 | 113.2 | -0.2 | i | 0.88 | 5.5 | -6.1 | 85.1
N#CCCn1c(-c2nonc2NC(=O)c2ccccc2Cl)nc2ccccc21 | 101.4 | 0.0 | i | 0.74 | -4.2 | 50.0 | 114.1

(continued)
compound | RGS16-Gao HTS | GALR2 ag | HSV replic up | HSV replic up primary fold | PKD1 kinase inh | Insulin prom inh | Insulin prom inh cell count
CC(C)N(Cc1nc(-c2ccccc2)no1)C(=O)C(Cl)(Cl)Cl | 104.0 | . | i | 0.97 | 2.4 | . | .
Cc1cnc(NC(=O)c2cc3c(C)nn(Cc4ccccc4Cl)c3s2)s1 | 104.9 | 0.4 | i | 0.84 | -22.0 | 24.1 | 112.3
Cc1cc(C)nc(NS(=O)(=O)c2ccc(N)cc2)n1 | 101.6 | -0.5 | . | . | -9.4 | 9.5 | 148.8
O=C(O)Cn1cc(/C=C2\SC(=O)N(c3ccccc3)C2=O)c2ccccc21 | 102.3 | . | i | 0.93 | -3.5 | -25.0 | 106.5
CCOc1ccc2c(c1)ncn2Cc1ccccc1 | 99.9 | . | i | 0.88 | 0.8 | 16.7 | 138.5
CCC(=O)Nc1sc(C(=O)Nc2ccccc2)c(C)c1C(=O)OC | 96.2 | . | i | 1.03 | -3.6 | . | .
CC(=O)OCCNc1cc(Sc2nc3ccccc3[nH]2)c2nonc2c1[N+](=O)[O-] | 78.5 | 2.5 | i | 0.76 | 9.8 | -7.4 | 21.4
CCOCCCNC(=O)C(c1ccc(OC)cc1)N(Cc1cccs1)C(=O)c1ccccc1O (stereo not given) | 99.7 | . | i | 1.12 | 4.8 | . | .
CCN(CC)CCSc1nc2ccccc2c(=S)n1-c1ccccc1 | 119.9 | . | i | 0.64 | -0.5 | 26.7 | 95.9
COc1cc2c(cc1OC)C(COc1ccc3c(C)cc(=O)oc3c1)N(C(=O)c1ccco1)CC2 (stereo not given) | 97.0 | -1.0 | i | 0.76 | -7.2 | -58.3 | 82.9
Cc1nnc2nc(-c3ccccc3)nc(-c3ccccc3)n12 | 90.7 | . | i | 0.84 | . | . | .
c1cncc(-c2ccnc3ncnn23)c1 | 110.4 | 0.2 | i | 0.93 | -2.7 | -57.1 | 100.2
CS(=O)(=O)Nc1ccc2c(c1)C(=O)OC2 | 101.2 | -4.0 | i | 0.9 | -1.1 | 66.7 | 67.3

Another view of some results above.
Order of values – RGS16-Gao HTS, GALR2 ag, HSV replic up, HSV replic up primary fold, PKD1 kinase inh, Insulin prom inh, Insulin prom inh cell count
> O=C(O)Cn1cc(/C=C2\SC(=O)N(c3ccccc3)C2=O)c2ccccc21
 : 102.3, ., i, 0.93, -3.5, -25.0, 106.5
> CCOc1ccc2c(c1)ncn2Cc1ccccc1
 : 99.9, ., i, 0.88, 0.8, 16.7, 138.5

Random excerpt: three entries already listed, in no set order.
compound | RGS16-Gao HTS | GALR2 ag | HSV replic up | HSV replic up primary fold | PKD1 kinase inh | Insulin prom inh | Insulin prom inh cell count
O=C(O)Cn1cc(/C=C2\SC(=O)N(c3ccccc3)C2=O)c2ccccc21 | 102.3 | . | i | 0.93 | -3.5 | -25.0 | 106.5
c1cncc(-c2ccnc3ncnn23)c1 | 110.4 | 0.2 | i | 0.93 | -2.7 | -57.1 | 100.2
CS(=O)(=O)Nc1ccc2c(c1)C(=O)OC2 | 101.2 | -4.0 | i | 0.9 | -1.1 | 66.7 | 67.3

In the list so far, 4 contain an aryl thioether with sulfur outside any ring.
compound | RGS16-Gao HTS | GALR2 ag | HSV replic up | HSV replic up primary fold | PKD1 kinase inh | Insulin prom inh | Insulin prom inh cell count
Cc1cccc(CSc2cccc3cccnc23)c1 | 81.3 | -1.4 | i | 0.85 | 3.0 | 50.0 | 72.0
O=C(CSc1nc2ccccc2s1)N1c2ccccc2Sc2ccccc21 | 98.6 | -1.7 | i | 1.09 | -4.7 | 53.3 | 78.8
CC(=O)OCCNc1cc(Sc2nc3ccccc3[nH]2)c2nonc2c1[N+](=O)[O-] | 78.5 | 2.5 | i | 0.76 | 9.8 | -7.4 | 21.4
CCN(CC)CCSc1nc2ccccc2c(=S)n1-c1ccccc1 | 119.9 | . | i | 0.64 | -0.5 | 26.7 | 95.9
